# miR-21 FLuc – miR-21 reporter, rising signal; AID 2288; HeLa miR-21 FLuc reporter, luciferase, 48 h; 340,000 tested, under 10 active; Potency, µM (highest dose often 38.3 µM), inactives show top-dose reporter change, positive = more light; active = well fitted rising curve with a large enough effect; inconclusive = small, poorly fitted or top-dose-only effect; inactive = no such curve, though single readings can be large or run the other way;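 also: % of control where 0% means no effect; miR-21 action dims this reporter so a rising signal means less miR-21 action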
#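 HeLa cells endogenously expressing miR-21, stably carrying CMV-driven firefly luciferase with a downstream miR-21 binding site, 2000 cells/well. Titrations up to approximately 40 uM, 48 hours; luciferase luminescence read.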
# Active calls of the source: *; ? = inconclusive; [ ] = dose if it differs, or a comment. An excerpt, so the mix of outcomes need not match the whole.
structure	miR-21 FLuc
Cc1ccc(Cl)cc1N1CCN(C(=O)CN2C(=O)COc3ccc(S(=O)(=O)N4CCC(C)CC4)cc32)CC1	4%
COc1ccc(Br)cc1CNC(=O)c1nn(-c2ccc(C)cc2)c(=O)c2c1c1ccccc1n2C	4%
CCc1ccc(C2c3c(-c4ccccc4O)n[nH]c3C(=O)N2Cc2ccncc2)cc1 (stereo not given)	2%
CCOC(=O)c1c(C)[nH]c(CCC(=O)Nc2c(Cl)cc(OC)cc2OC)c1C	20%
COc1ccc(S(=O)(=O)N(CC(=O)Nc2cc(C)ccc2OC)Cc2ccccc2)cc1	27%
COc1cccc(-c2nc(S(=O)(=O)c3ccccc3)c(NCc3ccccc3)o2)c1	0%
CC1(C)CC(NS(=O)(=O)c2ccc(S(N)(=O)=O)cc2)CC(C)(C)N1	-1%
COc1cccc(C(=O)Nc2ccc(C(=O)OCc3cc(=O)n4cc(C)sc4n3)cc2)c1	5%
COc1ccccc1NC(=O)Cn1cc(C(=O)c2ccncc2)c(=O)c2cc(C)ccc21	4%
CCOC(=O)c1c(NC(C)=O)c2c3c(sc2n1Cc1cccc(Cl)c1)CCCC3	-8%
Cc1cccc(C(=O)NCC(c2ccc3c(c2)OCO3)N2CCN(c3ccccc3F)CC2)c1 (stereo not given)	18%
COC(=O)c1ccc(NC(=O)CC2Nc3cc(C)c(C)cc3NC2=O)cc1 (stereo not given)	-23%

# (further entries)
structure	miR-21 FLuc
CCc1ccc(Sc2cc(C(=O)NCCCOC(C)C)c3ccccc3n2)cc1	21%
CCOc1ccc(N(CC)C(=O)c2cc3c(=O)oc4ccccc4c3s2)cc1	-10%
CCOC(=O)c1ccc(CN(Cc2ccc(Cl)cc2Cl)S(=O)(=O)c2ccc(F)c(C)c2)cc1	0%
O=C(Nc1ccc(Cl)cc1)c1cc2c(Cl)nc3ccccc3c2s1	0%
CC(C)CC(=O)Nc1ccc(C(=O)OCc2cc(=O)n3nc(C4CCCCC4)sc3n2)cc1	-1%
Brc1ccc(-c2csc(-c3nc(-c4ccc(Br)s4)cs3)n2)cc1	1%
O=C(Cn1c(=O)n(CCCS(=O)(=O)C2CCCCC2)c(=O)c2ccccc21)Nc1ccccc1C(F)(F)F	-2%
COc1ccc(OC)c(-n2nnc3c(sc4nc(C)c(Br)c(C)c43)c2=O)c1	5%
CCOCCCn1c(=N)c(S(=O)(=O)c2ccc(Cl)cc2)cc2c(=O)n3cccc(C)c3nc21	-4%
Cc1cc(F)ccc1NC(=O)CS(=O)(=O)c1cccc2nsnc12	1%
CCC1Oc2ccc(Cl)cc2N(CC(=O)NCCc2ccc(Cl)cc2)C1=O (stereo not given)	8%
COc1ccc(-n2c(SC)nc3sc4c(c3c2=O)CCN(C(C)=O)C4)cc1	-22%

# New compounds follow:
structure	miR-21 FLuc
CC(C)OCCCn1c(=O)c2ccccc2n2c(-c3ccccc3)nnc12	?
Cc1ccc(Cl)cc1NC(=O)C1CCCN(S(=O)(=O)c2c(C)noc2/C=C/N(C)C)C1 (stereo not given)	2%
Cc1cc2c(cc1S(=O)(=O)CCC(=O)N1CCCC(C)C1)OCC(=O)N2 (stereo not given)	-28%
Cc1cc2n(n1)CCCN2C(=O)Nc1ccccc1F	-6%
Oc1c(C(c2ccccc2)N2CCC3(CC2)OCCO3)sc2nc(-c3ccco3)nn12 (stereo not given)	-2%
Cc1ccc(NC(=O)CN2C(=O)c3cccnc3Sc3ccccc32)cc1C	-49%
Cc1ccccc1S(=O)(=O)Cc1ccc(C(=O)N2CCN(c3cccc(Cl)c3)CC2)o1	?
O=C(CC1N=C2c3ccccc3N=C(SCC(=O)Nc3ccc(F)cc3)N2C1=O)NCc1ccco1 (stereo not given)	-1%
CCN1CCN(c2ncc3c(n2)CC(c2ccccc2O)CC3=O)CC1 (stereo not given)	3%
O=C(Nc1ccc2nc(SCC(=O)N3CCOCC3)sc2c1)c1ccccc1Cl	20%
Cc1ccc(OCC(=O)N(Cc2ccc(N(C)C)cc2)CC2CCCO2)cc1C (stereo not given)	11%
COc1ccc(CNC(=O)CN2CCSc3ccccc32)c(OC)c1	-29%

# 2 of these compounds in a different format:
miR-21 FLuc | SMILES
3% | CCN1CCN(c2ncc3c(n2)CC(c2ccccc2O)CC3=O)CC1 (stereo not given)
20% | O=C(Nc1ccc2nc(SCC(=O)N3CCOCC3)sc2c1)c1ccccc1Cl

# Back to the main list, starting 2 compounds before the break.
structure	miR-21 FLuc
Cc1ccc(OCC(=O)N(Cc2ccc(N(C)C)cc2)CC2CCCO2)cc1C (stereo not given)	11%
COc1ccc(CNC(=O)CN2CCSc3ccccc32)c(OC)c1	-29%
CCOc1ccc(CCNC(=O)c2ccc(Cn3c(=O)c4cccn4c4cccnc43)cc2)cc1	-1%
COc1ccccc1NC(=O)CN(C)S(=O)(=O)c1ccc2c(c1)c(=O)n(C)c(=O)n2C	0%
COc1ccc(NC(=O)C2=C(C)Nc3ncnn3C2c2ccccn2)cc1 (stereo not given)	0%
O=C(CSc1cn(CC(=O)N2CCOCC2)c2ccccc12)Nc1ccccc1C(F)(F)F	-2%
CCCCc1ccc(Nc2ncnc3c2cnn3-c2ccc(C)cc2)cc1	-31%
COc1ccc(CNC(=O)Cn2c(=O)c3cccn3c3ccccc32)cc1	15%
COc1cc2c(cc1OC)C1OC(c3ccsc3)(C2)Oc2cc(C)oc(=O)c21 (stereo not given)	2%[7.66 µM]
CC(C)c1ccc(S(=O)(=O)c2cnc(SCC(=O)Nc3ccc(F)cc3F)nc2N)cc1	0%
CCCn1c(=O)c2sccc2n2c(CCCC(=O)N3CCN(c4cccc(C)c4C)CC3)nnc12	8%
COc1cc2c(cc1OC)C(COc1ccc(F)cc1)N(C(=O)c1ccc(S(=O)(=O)N3CCCC3)cc1)CC2 (stereo not given)	?
CCC1CCCCN1C(=O)CSc1nc2c([nH]c3ccccc32)c(=O)n1-c1cccc(OC)c1 (stereo not given)	23%
COc1ccc(C(=O)Cn2c(=O)c(-c3cc(C)ccc3NC(C)=O)nc3ccccc32)cc1	-1%

# The last five compounds of the part before come first, to join the parts:
structure	miR-21 FLuc
CC(C)c1ccc(S(=O)(=O)c2cnc(SCC(=O)Nc3ccc(F)cc3F)nc2N)cc1	0%
CCCn1c(=O)c2sccc2n2c(CCCC(=O)N3CCN(c4cccc(C)c4C)CC3)nnc12	8%
COc1cc2c(cc1OC)C(COc1ccc(F)cc1)N(C(=O)c1ccc(S(=O)(=O)N3CCCC3)cc1)CC2 (stereo not given)	?
CCC1CCCCN1C(=O)CSc1nc2c([nH]c3ccccc32)c(=O)n1-c1cccc(OC)c1 (stereo not given)	23%
COc1ccc(C(=O)Cn2c(=O)c(-c3cc(C)ccc3NC(C)=O)nc3ccccc32)cc1	-1%
COc1cc(NC(=O)Cn2c(=O)cc(C)c3c(C)nn(-c4ccc(C)cc4)c32)cc(OC)c1	4%
COc1ccc(-c2cn3nc(N4CCCC(C(=O)Nc5cc(C)cc(C)c5)C4)sc3n2)cc1 (stereo not given)	-18%
CC1CN(C(=O)Nc2ccc(C(=O)NCc3cccc(F)c3)cc2)c2ccccc2S1 (stereo not given)	9%
Cc1c(Cl)cccc1-n1nc(C)c2c(C(=O)NCc3ccccc3)cc(C3CC3)nc21	-4%
Cc1cc(C(=O)Nc2c(C)nc3ccccn3c2=O)ccc1[N+](=O)[O-]	-4%
CCc1ccc(CNC(=O)Cn2c(-c3cccs3)cc3cc(F)ccc32)cc1	0%
CCc1ccc(S(=O)(=O)Nc2cc3c(C(=O)OCc4ccccc4)c(C)oc3c3ccccc23)cc1	-5%
COc1ccc(Cn2c(CO)cnc2SCC(=O)Nc2ccc3c(c2)OCCO3)cc1	-15%
Cc1cc2oc(C(=O)Nc3cccc(-c4nc5ccccc5o4)c3)c(C)c2cc1C	2%
CCCSCCCNC(=O)C1CCN(C(=O)c2cc3sccc3n2C)CC1	18%
CCOC(=O)c1sc(NC(=O)C(C)Oc2ccc(OC)cc2)c(C(=O)OCC)c1C (stereo not given)	-4%
Cc1oc2ncn(CC(C)C)c(=O)c2c1C(=O)N1CCN(c2ccc(F)cc2)CC1	-3%

# (more compounds)
structure	miR-21 FLuc
O=c1c2cnn(-c3ccc(F)cc3)c2ncn1Cc1ccccc1Cl	-1%
Cc1ccc(-n2nc3c(=O)n(CCCC(=O)NC(C)c4ccccc4)nc(C)c3c2C)cc1 (stereo not given)	10%
Cc1ccc(-c2nc3cccnc3s2)cc1NC(=O)C(C)C	-8%
CCN(CC)CCNC(=O)C1CCN(c2cc(C)nc3c(-c4ccc(Cl)cc4)c(C)nn23)CC1	-1%
COc1cccc(CNC(=O)c2ccc3c(c2)c(C)c(C)n3Cc2ccccc2)c1	4%
CCOc1ccc(CCNC(=O)c2c(C)oc3ncn(CC(C)C)c(=O)c23)cc1OCC	-1%
Cc1ccc(-c2nc3cc(NC(=O)Cc4ccc(Cl)cc4)ccc3o2)cc1	-19%
COc1cccc2c1cc1c(=O)n(CC(=O)N3CCN(c4ccc(F)cc4)CC3)nc(C)n12	1%
O=C(NCc1cccs1)c1nn(-c2ccccc2F)nc1CO	?
COC(=O)c1ccc(NC(=O)CSc2nc3ccc(OC)cc3[nH]2)cc1	-8%
COc1ccccc1CNc1ccc(-c2nc(-c3ccccn3)no2)cc1[N+](=O)[O-]	-1%
COc1ccc(C2NC(=O)NC(C)=C2C(=O)Nc2ccccc2)cc1OC (stereo not given)	1%

# (cont.)
structure	miR-21 FLuc
Cc1ccc(C)c(Nc2ncnc3onc(C)c23)c1	-12%
COC(=O)c1ccccc1NS(=O)(=O)c1ccc2c(c1)CCCN2C(C)=O	0%
COc1ccc(C2C(C(=O)Nc3ccccc3)=C(C)Nc3nc(-c4ccccc4)nn32)c(OC)c1 (stereo not given)	6%
Cc1ccc(NC(=O)NCc2c(-n3cccc3)sc3c2CCCC3)c(Cl)c1	-6%
COc1ccc(NC(=O)c2cnc(N3CCOCC3)c3ccccc23)cc1OC	12%
Cc1cccc(S(=O)(=O)c2cn(C)c3cc(N4CCC(C)CC4)c(F)cc3c2=O)c1	0%
CCc1ccc(-c2nc(SCC(=O)NCC3CCCO3)c(-c3ccc(C)cc3)[nH]2)cc1 (stereo not given)	-1%
Cc1ccc(-n2ncc3c(Nc4ccc5c(c4)OCCO5)ncnc32)cc1C	-35%
Cc1c(C(=O)NC(C)c2ccccc2)sc2nc3n(c(=O)c12)CCCC3 (stereo not given)	-7%
O=C(NCCOCCO)C(=O)Nc1c2c(nn1-c1ccc(F)cc1)CSC2	0%
CC1=C(C(=O)Nc2ccc(C)cc2C)C(c2cccs2)n2nc(SCc3cccc(C)c3)nc2N1 (stereo not given)	-1%
CC(=O)c1cc(-c2ccc(F)cc2)n(CCC(=O)NCc2ccc(C)cc2)c1C	4%

# (listing goes on)
structure	miR-21 FLuc
CCOc1ccc(CCNC(=O)Cn2nnc(-c3ccc(OC)c(OC)c3)n2)cc1OCC	-19%
CCOc1ccc(-n2nc3ccc(NC(=O)Cc4ccccc4)cc3n2)cc1	-13%
COc1ccc(OC)c(-n2nnc(-c3nc(-c4cc(OC)c(OC)c(OC)c4)no3)c2C)c1	-7%
Cc1cc(C)cc(NC(=O)Cn2c(=O)n(CC(=O)NCCc3ccccc3)c(=O)c3ccccc32)c1	-1%
CCSc1ncc(Cl)c(C(=O)N(Cc2ccccc2)Cc2ccco2)n1	?
O=C(CSc1ncc2c(n1)-c1cc(Cl)ccc1N(Cc1ccccc1)S2(=O)=O)NCc1ccccc1	5%
COc1ccc(CCNC(=O)CN(c2ccccc2)S(=O)(=O)N(C)C)cc1	-4%
O=C(Nc1ccc2oc(-c3cccc(F)c3)nc2c1)c1ccc2ccccc2c1	-5%
Clc1ccc(-c2csc(=Nc3ccccc3)n2Cc2ccc3c(c2)OCO3)cc1	-25%
Cc1cccc(Cn2c(=O)n(CCCC(=O)NCc3ccccc3Cl)c(=O)c3ccccc32)c1	21%
COc1ccc(C2CC(=O)c3c([nH]c(C(=O)OCCOc4ccccc4)c3C)C2)cc1OC (stereo not given)	12%
CCOc1ccc(CCNC(=O)c2ccc(Nc3nc4ccccc4n4nnnc34)cc2)cc1OCC	6%

# Looked up by structure from above (three):
structure	miR-21 FLuc
CCOc1ccc(CCNC(=O)c2ccc(Nc3nc4ccccc4n4nnnc34)cc2)cc1OCC	6%
CCOc1ccc(-n2nc3ccc(NC(=O)Cc4ccccc4)cc3n2)cc1	-13%
O=C(Nc1ccc2oc(-c3cccc(F)c3)nc2c1)c1ccc2ccccc2c1	-5%

# (continued)
structure	miR-21 FLuc
CCN(CC)C(=O)C1CCCN(c2ncnc3c2c(-c2ccccc2)cn3-c2cccc(C)c2)C1 (stereo not given)	10%
COc1ccc(Cl)cc1C(=O)NCC(c1ccc(N(C)C)cc1)N1CCOCC1 (stereo not given)	6%
Cc1ccc(-c2nc3scc(CCNS(=O)(=O)c4ccc(F)c(C)c4)n3n2)cc1	-1%
CCc1ccc(-n2c(SCc3cccc(F)c3)nc3[nH]ncc3c2=O)cc1	5%
CCOC(=O)c1nc(NCc2ccc(Cl)cc2)c2c(C)noc2n1	1%
CN(CC(=O)NCc1ccc(Cl)cc1)S(=O)(=O)c1ccc2[nH]c3c(c2c1)CCCC3	?
Cc1ccc(OCc2nc(-c3ccc(C(=O)N4CCN(c5cc(Cl)ccc5C)CC4)cc3)oc2C)cc1	0%
NS(=O)(=O)c1ccc(NC(=O)c2csnn2)cc1	-3%
CCCC(=O)Nc1ccc2oc(-c3ccc(O)c(Br)c3)nc2c1	-74%
CCCn1c(SCc2nc(-c3ccccc3OCC)no2)nnc1-c1ccc(Cl)cc1	12%
CCCOc1ccc(/C=C/C(=O)Nc2sc(C)c(C)c2C(=O)OCC)cc1OC	1%
